# VDR inh = Inhibitors of the vitamin D receptor (VDR): qHTS | Vitamin D3 receptor (Homo sapiens), P11473 | VDR-SRC2-3 peptide fluorescence polarization, 2 h | Potency, µM, without a hit: max response, negative = inhibition, most hits filed as inhibitors | 400,000 tested, 0.93% active | AID 504847, 2011; active means well fitted inhibition curve with a large enough effect; further: series mostly up to about 120 µM
# Target sequence (P11473 whole entry, looked up): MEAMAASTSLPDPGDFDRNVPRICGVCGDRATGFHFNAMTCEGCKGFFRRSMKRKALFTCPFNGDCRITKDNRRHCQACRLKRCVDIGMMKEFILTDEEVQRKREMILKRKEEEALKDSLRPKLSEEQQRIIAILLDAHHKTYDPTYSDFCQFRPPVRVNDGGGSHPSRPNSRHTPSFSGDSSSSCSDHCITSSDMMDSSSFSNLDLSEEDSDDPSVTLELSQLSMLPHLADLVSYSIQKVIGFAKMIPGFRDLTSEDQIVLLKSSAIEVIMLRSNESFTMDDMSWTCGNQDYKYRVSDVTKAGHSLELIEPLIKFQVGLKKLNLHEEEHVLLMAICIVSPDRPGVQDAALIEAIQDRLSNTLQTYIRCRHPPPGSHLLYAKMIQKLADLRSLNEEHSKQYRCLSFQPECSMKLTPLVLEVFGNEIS
#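 Signal is fluorescence polarization, reporting how far test compounds block the interaction of VDR with the SRC2-3 coregulator peptide after a 2 h room-temperature incubation.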
# An asterisk follows results filed as active; & = joins results of further samples. On the % scale 0 is the no-effect control and ±100 the full control effect; potency means the concentration at half of the fitted maximal effect. Only part of the results is shown; count on the stated rates, not on these rows.
SMILES,VDR inh
O=C(Nc1ccc(C2CCCCC2)cc1)C1CCN(c2ncccn2)CC1,6.0%
N=c1nc2n(cc1F)C1OC(CO)C(O)C1O2 (stereo not given),-6.1%
Cc1cnc(NC(=O)Cc2ccccc2Cl)s1,11.7%
CC1Cc2cc(/C(O)=C3/C(=O)C(=O)N(CCCn4ccnc4)C3c3ccc([N+](=O)[O-])cc3)ccc2O1 (stereo not given),-11.0%
Cc1c(C(=O)NNS(=O)(=O)c2ccccc2)sc(=S)n1C,7.3%
COc1ccc(C(=O)O)cc1S(=O)(=O)Nc1ccc(C)cc1,6.0%
COc1ccccc1-n1nnnc1SCC(=O)N1CCCC1=O,0.7%
CCCCn1nc(NC(=O)CC)c2cc3cc(OC)ccc3nc21,6.5%
O=Cc1c(-c2ccc(F)cc2)nc2ccccn12,-9.5%
O=C(O)CSc1ncnc2sc3c(c12)CCC3,-19.4%
O=C(CN1C(=O)c2ccc([N+](=O)[O-])cc2C1=O)Nc1cc(S(=O)(=O)N2CCOCC2)ccc1Cl,17.8%
O=C(Nc1cccc2cccnc12)c1ccccc1[N+](=O)[O-],-3.6%
O=C(CN1C(=O)COc2ccc(Cl)cc21)NC1CC1,1.1%
CC(NC(=O)c1cccnc1)C(c1cccs1)N1CCN(c2ccccc2F)CC1 (stereo not given),25.0%
Cc1cc(F)ccc1NC(=O)c1ccc2nc(Cc3ccccc3)oc2c1,5.9%
c1ccc(CCNc2ccnc3cc4ccccc4cc23)cc1,1.5%
COc1ccccc1/C=C(/C(=O)OCC(=O)NCc1ccccc1)c1ccccc1,3.3%
CN(CC(=O)Nc1ccccc1Cl)C(=O)CSc1nncs1,3.3%
CN(C)S(=O)(=O)c1ccc(NC(=O)COc2cccc3c2OC(C)(C)C3)cc1,6.8%
CC1CCCC(NC(=O)CCCn2c(=S)[nH]c3ccccc3c2=O)C1C (stereo not given),6.1%
CC(C)N=c1c([N+](=O)[O-])nn(C)n1O,-25.8%
CC(C)N(C(=O)COC(=O)c1ccc([N+](=O)[O-])cc1)c1ccccc1,-14.2%
O=C(COC(=O)CNC(=O)c1ccc(Cl)cc1Cl)NC(=O)NC1CCCCC1,-17.7%
CCOc1ccc(NS(=O)(=O)c2cc(NC(=O)CCS(=O)(=O)c3ccc(C)cc3)ccc2OC)cc1,6.1%
Cc1cc(C=O)c(C)n1-c1ccc(N2CCCCC2)c([N+](=O)[O-])c1,-11.4%
Cc1cc(C(=S)N2CCOCC2)c(C)n1-c1ccc(F)cc1,-11.7%
O=C(CS(=O)(=O)c1c[nH]c2ccccc12)N1CCCc2ccccc21,5.8%
O=S(=O)(c1ccccc1)N1CCN(CC(O)COc2ccc3c(c2)CCC3)CC1 (stereo not given),12.5%
O=C(C1CC1)N1CCc2cc(Br)cc(S(=O)(=O)NCc3ccccn3)c21,2.3%
COc1ccc(NC(=O)COc2cccc3c2CCN(Cc2cccnc2)C3=O)c(OC)c1,-6.5%
Cc1cccc(-c2nc(C#N)c(NC3CCCCC3)o2)c1,-3.8%
CCOc1ccccc1NC(=O)CSc1ccc(-c2sc(C)nc2C)nn1,0.6%
CCOC(=O)N1CCC(NS(=O)(=O)c2ccc(C)c(Cl)c2)CC1,12.2%
O=S(=O)(c1ccc(C2CCCCC2)cc1)N1CCN(c2ncccn2)CC1,6.0%
C=CCn1c(SC(C)CC)nc(O)cc1=O (stereo not given),-13.1%
COC(=O)CNc1cc(S(=O)(=O)N2CCCCC2)ccc1Oc1ccc(C(=O)OC)cc1,-1.5%
Cc1ccc(C)c(OCCCCn2ccnc2)c1,21.8%
CCOc1ccc2ccc(OCC)c(/C=N/n3cnnc3)c2c1,-6.2%
Cc1nnc(NC(=O)CC23CC4CC(CC(C4)C2)C3)s1,-9.3%
CN1CCN(CC(O)COC(c2ccccc2)c2ccccc2)CC1 (stereo not given),12.1%
CN(Cc1cnn(C)c1)C(=O)c1sc2cccc(Cl)c2c1Cl,-1.9%
O=C(Nc1ccc2c(c1)OCCO2)C1CCCN(S(=O)(=O)c2cnc[nH]2)C1 (stereo not given),6.9%
Cc1nnc(N2CCN(c3ccccc3)CC2)[nH]c1=O,-18.5%
CCN(C(=S)Nc1cccc(C)c1)c1ccccc1,4.3%
Cc1ccc(-c2csc(NC(=O)CN3C(=O)CCC3=O)n2)cc1,9.0%
CC(NC(=O)c1ccccc1)C(=O)Nc1ccccc1 (stereo not given),-0.4%
Cc1ccc(C)c(NS(=O)(=O)c2ccc3c(c2)Cc2cc(S(=O)(=O)Nc4cc(C)ccc4C)ccc2-3)c1,1.1%
CCOC(=O)C1=C(C)NC(=O)NC1c1cccc(OC)c1OCc1ccccc1Cl (stereo not given),-2.7%
CCN(CC)S(=O)(=O)c1ccc(-c2nnc(SCc3nnc(-c4ccc(C)cc4)o3)o2)cc1,7.8%
Cc1nn(C)c(C(=O)NNC(=S)Nc2ccc(F)cc2)c1[N+](=O)[O-],7.9%
CC(=O)N1CCC(C(=O)Nc2ccc3c(c2)CCC3)CC1,-11.1%
CN(C)c1ccccc1C(=O)N1CCC(n2nccc2NC(=O)C2CC2)CC1,2.1%
CCCOc1ccc(C2C(=O)N(C3CCCCCC3)CC(=O)N2CCC)cc1OC (stereo not given),4.8%
CC(C)C(C(=O)Nc1ccccc1F)N1C(=O)c2ccccc2C1=O (stereo not given),0.3%
CC1CN(C(=O)COC(=O)[C@@H](NC(=O)c2ccccc2Cl)C(C)C)CC(C)O1 (stereo not given in full),-21.5%
CC[C@@]12C(=O)N(c3ccccc3)C(=O)N1[C@H](c1cccc(C)c1)[C@@H]1C(=O)N(Cc3ccccc3)C(=O)[C@@H]12,-11.5%
Cc1cc(NC(=O)CSc2nc(C(C)C)nc3sc4c(c23)CCC(C)C4)no1 (stereo not given),0.2%
COc1ccc(OC)c(/C=C/C(=O)Nc2cccc(S(=O)(=O)NC3=NCCCCC3)c2)c1,-6.1%
COc1ccc(C(=O)c2nccc3ccccc23)cc1,-1.6%
COc1cc(C(=O)OCC(=O)N2CCNC2=O)cc(Cl)c1OC,-8.4%

# 16 entries already listed, ordered by molar mass, lowest first:
SMILES,VDR inh
CC(NC(=O)c1ccccc1)C(=O)Nc1ccccc1 (stereo not given),-0.4%
CCN(C(=S)Nc1cccc(C)c1)c1ccccc1,4.3%
Cc1nnc(N2CCN(c3ccccc3)CC2)[nH]c1=O,-18.5%
CC(=O)N1CCC(C(=O)Nc2ccc3c(c2)CCC3)CC1,-11.1%
Cc1ccc(-c2csc(NC(=O)CN3C(=O)CCC3=O)n2)cc1,9.0%
CC(C)C(C(=O)Nc1ccccc1F)N1C(=O)c2ccccc2C1=O (stereo not given),0.3%
COc1cc(C(=O)OCC(=O)N2CCNC2=O)cc(Cl)c1OC,-8.4%
Cc1nn(C)c(C(=O)NNC(=S)Nc2ccc(F)cc2)c1[N+](=O)[O-],7.9%
CN(C)c1ccccc1C(=O)N1CCC(n2nccc2NC(=O)C2CC2)CC1,2.1%
O=C(Nc1ccc2c(c1)OCCO2)C1CCCN(S(=O)(=O)c2cnc[nH]2)C1 (stereo not given),6.9%
CC1CN(C(=O)COC(=O)[C@@H](NC(=O)c2ccccc2Cl)C(C)C)CC(C)O1 (stereo not given in full),-21.5%
Cc1cc(NC(=O)CSc2nc(C(C)C)nc3sc4c(c23)CCC(C)C4)no1 (stereo not given),0.2%
CCOC(=O)C1=C(C)NC(=O)NC1c1cccc(OC)c1OCc1ccccc1Cl (stereo not given),-2.7%
CCN(CC)S(=O)(=O)c1ccc(-c2nnc(SCc3nnc(-c4ccc(C)cc4)o3)o2)cc1,7.8%
CC[C@@]12C(=O)N(c3ccccc3)C(=O)N1[C@H](c1cccc(C)c1)[C@@H]1C(=O)N(Cc3ccccc3)C(=O)[C@@H]12,-11.5%
Cc1ccc(C)c(NS(=O)(=O)c2ccc3c(c2)Cc2cc(S(=O)(=O)Nc4cc(C)ccc4C)ccc2-3)c1,1.1%

# The listing continues.
SMILES,VDR inh
CNC(=O)CN(c1cc(OCCOC)c(Cl)cc1Cl)S(=O)(=O)c1ccccc1,10.4%
CC(CNC(=O)c1sc2ncccc2c1-n1cccc1)c1ccccc1 (stereo not given),12.1%
COC(=O)CSc1cc(C)nc(NC(C)=O)n1,-10.6%
CC1CN(CCCSc2ccc(Cl)cc2)CC(C)O1 (stereo not given),3.7%
CSc1ccccc1C(=O)C1CCCN(C(=O)c2csnn2)C1 (stereo not given),-24.9%
O=C(N/N=C/c1cccnc1)c1cc(O)c(O)c(O)c1,2.7%
Cc1ccc(NC(=O)C/C(N)=N/O)cc1C,14.1%
COc1ccccc1CNC(=O)CCNC(=O)N1CC(=O)Nc2ccccc21,-19.9%
CC(C(=O)NC1CCCC1)N1CCN(S(=O)(=O)c2ccc(C(C)(C)C)cc2)CC1 (stereo not given),-1.2%
CCc1cc(-c2n[nH]c(CCC(=O)O)c2-c2nc3ccccc3n2C)c(O)cc1O,-5.2%
COc1cc(C2C(C#N)=C(N)N(N(C)C)C3=C2C(=O)CCC3)cc(OC)c1OC (stereo not given),1.3%
COc1ccc2c(c1)c1c(c(=O)n(CCc3ccccc3)c(=O)n1Cc1ccc(F)cc1)n2C,6.3%
O=C(/C=C/c1ccccc1[N+](=O)[O-])OC1CCCCC1=O (stereo not given),-6.1%
COc1ccccc1NS(=O)(=O)c1ccc2oc(SC)nc2c1,16.3%
O=C(c1cc(COc2ccc(F)cc2F)on1)N1CCSCC1,1.0%
Cn1c(=O)c(Oc2ccc(F)cc2)c(O)c2ccccc21,6.8%
CCCCC(=O)Nc1ccc(F)c(Cl)c1,-3.7%
COc1cccc(NC(=O)Nc2ccc3c(c2)CCC3)c1,10.0%
Oc1ccc(C[C@H]2CNC(=S)N2CC2CCCN2C[C@H](Cc2ccc(O)cc2)N2C[C@H](Cc3ccccc3)N(CC3CCCCC3)C2=S)cc1 (stereo not given in full),-7.1%
Cc1cc(C)n(CCN(C)Cc2cn[nH]c2-c2ccc(F)cc2F)n1,7.6%
CC(=O)N[C@@H](Cc1c[nH]c2ccccc12)C(=O)OCc1cc(C(F)(F)F)cc(C(F)(F)F)c1,2.0%&11.5%&3.4%
CCCOc1ccc(NC(=O)c2c(-c3ccccc3)noc2C)cc1,-3.1%
COc1ccc(NC(=O)C/C(C)=N/NC(=O)C(=O)Nc2cccc(Cl)c2C)c(OC)c1,4.5%
CSc1ccccc1NC(=O)Cn1c(-c2cscn2)nc2ccccc21,-12.2%
O=[N+]([O-])c1cc(-c2nc(-c3ccccc3)no2)ccc1N1CCOCC1,7.7%
CCC(/C=C/C(C)C1CCC2C3CC=C4CC(O)CC[C@@]4(C)C3CC[C@@]12C)C(C)C (stereo not given in full),3.5%
O=C(COC(=O)c1ccc2[nH]c3c(c2c1)CCCC3)Nc1ccccc1,4.3%
Cc1cc(/C=C2/NC(=S)NC2=O)c(C)n1-c1cccnc1,-13.5%
Cc1ccc(C(=O)NCCNC(=O)c2cccnc2)cc1,2.7%
CC(C)(C)OC(=O)N1CCC2(CC1)Oc1ccc(F)cc1C(=O)C21CC(c2cccnc2)=NO1 (stereo not given),-20.1%
O=C1CC(c2ccc(F)cc2)C2=C(CCCC2=O)N1 (stereo not given),9.1%
CCCn1c(=O)c(C(=O)NCCc2ccc(Cl)cc2)c(O)c2ccccc21,10.1%
CC1=C(c2ccc(C)cc2)[N+](=O)C(C)(C)N1[O-],-21.6%
NC(=O)C(F)(F)C12OC3C4C5CC(C6C5C3C61)C42 (stereo not given),-11.2%
O=C(CCc1ccc(S(=O)(=O)N2CCOCC2)cc1)Nc1ccc(F)cc1[N+](=O)[O-],-24.1%
CC(=O)c1ccc(NC(=O)C2CCN(S(=O)(=O)c3cccc4cccnc34)CC2)cc1,-11.2%
Cc1cc(NC(=O)CSCC(=O)OCc2nnc(-c3ccccc3)o2)no1,-2.8%
CCCCNC(=O)C12CCC(C)(C(=O)C1Br)C2(C)C (stereo not given),-19.6%
CCOC(=O)C1=C(COC(=O)CCOc2ccccc2)NC(=O)NC1C (stereo not given),29.6%
Cc1ccnc(NC(=O)c2cccc(NC(=O)c3ccccc3C)c2)c1,-10.9%
CC(C)Oc1cccc(-c2cc(C(=O)N3CCN(S(C)(=O)=O)CC3)c3ccccc3n2)c1,-2.8%
COc1ccccc1C(=O)C1CCCN(Cc2cn[nH]c2C2CCCCC2)C1 (stereo not given),-11.5%
Cc1ccc(Cl)cc1N1CCN(C(=O)c2ccc(CS(=O)Cc3ccc(Cl)cc3)o2)CC1 (stereo not given),-12.3%
COc1cc(NC(=O)C2CCCCC2)c(OC)cc1NC(=O)c1ccccc1,1.1%
C/C(CC(=O)Nc1ccc2c(c1)OCCO2)=N\NC(=O)COc1ccccc1C,-28.3%
CCN(CC)CCCN1C(=O)CSC1c1ccc2c(c1)OCO2 (stereo not given),2.9%
CCOC(=O)C1=C(CN2CCN(C)CC2)NC(=O)NC1c1ccc(F)cc1 (stereo not given),16.8%
CC(=O)c1ccc(C(=O)N(C)C2CCCN(Cc3ccccc3F)C2)s1 (stereo not given),7.6%
CN(CCC#N)C(=S)Nc1ccc(S(=O)(=O)N2CCOCC2)cc1,-17.2%
CSc1ccc(CNC(=O)C2CCCN(S(=O)(=O)N(C)c3ccc(F)cc3)C2)cc1 (stereo not given),11.4%
Cc1nn(-c2cccc(Cl)c2)c(Cl)c1/C=N/NC(=O)c1cccs1,-11.3%
CC(=O)N1CCN(C(=O)CCNS(=O)(=O)c2ccc(Br)cc2)CC1,15.7%
COc1ccccc1N1CCN(C(=O)c2ccc(Cn3c(=O)[nH]c4ccsc4c3=O)cc2)CC1,-1.3%
Cc1cc(=O)oc2c3c(cc(OCC(=O)NCc4ccccc4)c12)OC(C)(C)CC3,-15.8%
CN(C)C(=O)CSc1nnc([C@H](Cc2ccccc2)NC(=O)OC(C)(C)C)o1,-8.9%
CN1CCN(c2ccc(S(=O)(=O)N3CCOCC3)cc2NC(=O)CSCc2ccccc2)CC1,-4.6%
COc1cc(O)c(CCC(=O)c2ccc(OC)c(OC)c2)c(OC)c1,-8.9%
CCn1nc(C(=O)OC(C(=O)c2c[nH]c3ccccc23)c2ccccc2)c2ccccc2c1=O (stereo not given),5.9%
CCC(C)NC(=O)CSc1nc2n[nH]c(C)c2c(=N)n1-c1ccc(OC)cc1 (stereo not given),10.9%

# Bioassay records deposited in PubChem BioAssay by National Center for Advancing Translational Sciences (NCATS).
